Bioassay records deposited in PubChem by several laboratories.
LANA-H2A inh: blockers of LANA interaction with H2A/H2B – biochemical, FP readout, HTS, primary screen | Protein LANA1 (Human herpesvirus 8 type P (isolate GK18)), Q9QR71 | cell-free LANA-H2A/H2B peptide, fluorescence polarization | inhibition, % (test concentration not listed) | actives 0.6% (n = 320,000) | AID 2629, 2010; in the data active means inhibition mostly above about 10%, no sharp cut-off; inactive means mostly below about 6.7%;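 further: stock transfer was 7.5 nL into about 10 µL; 0% = median of vehicle wells and 100% = median of positive control wells; one replicate is shown; the record names a cut of 25% in any replicate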
Bfl-1 A1 inh: caspase 3/7 activation in MEF A1-2A-BIM cells, primary screen, A1 inhibitor project, cell-based, luminescence, HTS. caspase activation, % (test concentration not listed). AID 2462, 2010. actives 0.066% (n = 330,000). Caspase-Glo 3/7 luminescence, 3 h; percent of clofoctol response, vehicle zero;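 active means over half of replicate activation scores above 10%, or exactly half above 10 with the replicate mean above 10; inconclusive means replicate mean below 10 yet half the replicates above 10; inactive means over half of replicates below 10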;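 further: wells of about 30 µL received 50 nL stock; many hits fall short of the cut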
B2AR ag: beta2AR agonists driving receptor internalization, primary screen, cell-based, FAP fluorogen, flow cytometry; Beta-2 adrenergic receptor (Homo sapiens), P07550; Am2.2-beta2AR cells; reference of the scale not given here; response, % (no concentration beside the values); actives 0.43% (n = 340,000); AID 504454, 2011;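 active means response above a set limit, near 3 SD of response in nonfluorescent compounds, cut at about 42% in these data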;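 further: stock transfer was 100 nL into about 11 µL; a reference agonist was the positive control; negative values mostly stem from fluorescent compounds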
UCH37 inh: inhibitors of human UCH37 deubiquitinase, primary screen, biochemical, Ub-AMC cleavage, fluorescence; purified proteasome/UCH37; inhibition, % (concentration not given with the values); actives 0.33% (n = 330,000);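 active means mean of two replicates above 20%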;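 further: 0% = compound-free wells with enzyme and 100% = wells lacking proteasome; stock transfer was 100 nL into about 20 µL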
Target sequence (Q9Y5K5 whole entry, looked up): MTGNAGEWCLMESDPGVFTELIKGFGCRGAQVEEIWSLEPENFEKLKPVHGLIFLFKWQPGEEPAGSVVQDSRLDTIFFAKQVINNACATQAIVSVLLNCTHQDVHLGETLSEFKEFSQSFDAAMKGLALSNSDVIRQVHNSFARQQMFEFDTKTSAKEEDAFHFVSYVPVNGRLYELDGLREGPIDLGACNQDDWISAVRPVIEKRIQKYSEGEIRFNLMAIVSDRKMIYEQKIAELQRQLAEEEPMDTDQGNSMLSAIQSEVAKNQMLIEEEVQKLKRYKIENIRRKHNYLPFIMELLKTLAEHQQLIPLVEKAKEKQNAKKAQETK
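System: Proteasome-associated human UCH37 deubiquitinase; Input: 0.15 nM proteasome in added enzyme buffer; Also added: Ub-AMC substrate from 1 µM stock; Incubation: 30 min compound-proteasome preincubation then 25 min substrate reaction, room temperature; Detection: fluorescence, ex 355 nm, em 460 nm; Read-out: % inhibition of Ub-AMC cleavage fluorescence; Benchmarks: no-proteasome and no-compound wells.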
HNF4A DNA FP: change in binding of human HNF4A to DNA, primary screen, biochemical, fluorescence polarization, FITC-DNA. AID 1224865, 2016. activity change, % at 10 µM. Hepatocyte nuclear factor 4-alpha (Homo sapiens), P41235. 1 h. actives 0.3% (n = 360,000); in the data active means activity change above about 30%, passing the limit was not always enough;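 further: controls were the assay level and a saturating level of protein; the project sought stronger binding though the title names inhibitors; some compounds called inactive have numbers as strong as hits; positive values seem to mean higher polarization but the record does not say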
Target sequence (P41235 whole entry, looked up): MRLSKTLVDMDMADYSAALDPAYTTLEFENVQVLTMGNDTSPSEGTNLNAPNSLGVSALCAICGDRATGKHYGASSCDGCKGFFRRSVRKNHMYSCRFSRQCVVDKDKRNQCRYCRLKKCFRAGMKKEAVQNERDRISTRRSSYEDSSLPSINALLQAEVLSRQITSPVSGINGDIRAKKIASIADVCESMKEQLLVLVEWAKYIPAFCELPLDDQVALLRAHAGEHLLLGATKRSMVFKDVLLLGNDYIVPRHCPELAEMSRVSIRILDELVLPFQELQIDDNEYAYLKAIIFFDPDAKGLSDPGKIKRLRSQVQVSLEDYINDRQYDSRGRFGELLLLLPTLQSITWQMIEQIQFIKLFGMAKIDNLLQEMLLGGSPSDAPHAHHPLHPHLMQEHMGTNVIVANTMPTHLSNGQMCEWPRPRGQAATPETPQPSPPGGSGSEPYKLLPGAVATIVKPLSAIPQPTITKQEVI
Vif A3G: inhibitors of Vif binding to APOBEC3G peptide, primary screen, biochemical, TR-FRET, GST-Vif 1-94, biotin-A3G peptide, dose response retest (AID 1117319) | one-dose inhibition, %; IC50 in µM for titrated hits | TR-FRET GST-Vif / biotin-A3G peptide binding; higher % means a stronger effect; test concentration not given here; strong numbers were not always called active | Virion infectivity factor (Human immunodeficiency virus type 1 group M subtype B (isolate … | actives 0.57% (n = 260,000);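 active means above the screen mean plus three standard deviations and confirmed in dose response; inconclusive means results disagree or hit not tested in dose response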;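 further: Vif residues 1-94 fused to GST binding biotinylated APOBEC3G peptide 110-148; 0% = full assay without inhibitor and 100% = GST in place of GST-Vif; retest series ran down from 100 µM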
Ecoli growth: E. coli growth inhibition, primary screen, OD600 | Escherichia coli growth, 23 h; active compounds read low | OD600 absorbance (no concentration beside the values) | actives 0.21% (n = 330,000);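 active means OD600 absorbance below the run mean of sample wells minus 3.6 SD, in any replicate, cut at about 0.56 in these data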;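 further: stock transfer was 300 nL into about 60 µL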
Numbers without * were called inactive; ? = inconclusive; / = not tested or not shown; & = joins results of further samples.

SMILES	LANA-H2A inh	Bfl-1 A1 inh	B2AR ag	UCH37 inh	HNF4A DNA FP	Vif A3G	Ecoli growth
Cn1c(Cn2c(=O)sc3ccccc32)nnc1SCC(=O)N1CCCC1	3.7	-1.1	7.6	0.5	1.2	18.3%	0.678
Cc1cc(NC(=O)CCC(=O)N(c2ccccc2)C(C)C(=O)NC2CCCC2)no1 (stereo not drawn)	2.1	0.0	-4.5	0.3	3.5	/	0.66
O=C(CN1C(=O)S/C(=C/c2cccs2)C1=O)N1CCCC1	1.6	0.6	-8.2	7.9	1.6	-9.0%	0.702
C/C(=N/Nc1nc(C)cc(-c2ccccc2)n1)c1ccco1	0.9	-1.4	-8.7	/	2.1	0.0%	/
Cc1ccc(C(=O)CC(=O)c2ccc(C(C)(C)C)cc2)cc1	-4.0	0.5	4.8	6.4	-0.9	/	0.678
Cc1cc(=O)c(C(=O)Nc2ccc(N3CCOCC3)cc2N2CCOCC2)nn1-c1ccccc1Cl	5.5	0.5	3.7	6.5	-1.6	-2.1%	0.651
COc1cc(-c2cc(=O)c3c(O)c(OC)c(OC)cc3o2)cc(OC)c1O	6.2	0.3	3.7	11.8	-2.7	/	0.704
CC(C)CN(C(=O)COC(=O)COc1ccc2ccccc2c1)c1c(N)n(Cc2ccccc2)c(=O)[nH]c1=O	6.6	-1.1	4.3	4.8	2.9	-1.6%	0.747
O=C(NCc1ccccc1CN1CCCC1)C1CCN(C(=O)c2ccc(F)cc2)CC1	/	/	5.9	1.1	0.5	-7.8%	0.675
O=C(CCN1C(=O)/C(=C/c2cccs2)SC1=S)Nc1ccccc1O	-0.7	-0.1	18.6	2.0	17.6	/	0.645
COC(=O)c1ccc(CC(=O)c2c(C)cc(O)cc2O)o1	0.3	1.3	7.0	4.9	0.2	2.33µM*	0.751
Cc1sc2nc(SCC(=O)Nc3cccc(S(N)(=O)=O)c3)[nH]c(=O)c2c1C	-5.6	1.1	-8.0	1.0	5.8	/	0.647
NS(=O)(=O)c1ccc(CCNC(=O)CNC(=O)c2ccc(F)cc2)cc1	-0.8	0.6	0.7	0.3	-3.8	-3.2%	0.653
Cc1ccc(N2C(=O)C3C4C=CC(CC4)C3C2=O)c([N+](=O)[O-])c1 (stereo not drawn)	-2.5	0.0	-5.7	3.9	6.6	-4.5%	0.667
OCC1(CO)COC(c2ccccc2)=N1	1.4	-0.1	8.7	-0.4	-1.1	-3.0%	0.631
Cc1ccc(CNc2ccc3c(c2)OCO3)c(C)c1	12.5	0.1	/	/	/	16.8%	/
C/C(=C\C(=O)c1ccc(Br)cc1)NNC(=O)c1ccccc1	7.1	0.0	0.1	2.7	0.1	/	0.722
CCc1ccc(OCC(=O)NC(=S)Nc2ccc(Br)c(C)n2)cc1	-0.1	-0.8	6.4	0.9	-0.8	9.7%	0.751
O=C(Nc1nc2ccccc2n1CCN1CCOCC1)c1ccc(Cn2cc([N+](=O)[O-])cn2)o1	2.8	0.6	-19.8	/	0.1	/	/
COCc1cc(C)n(CC(=O)N/N=C/c2ccc(-c3ccc(Cl)c(C(=O)O)c3)o2)c(=O)c1C#N	-3.0	0.6	0.7	/	-16.2	19.4%	/
Cc1ccc(-c2cc(C(=O)Nc3cc(C)on3)c3ccccc3n2)c(C)c1	1.7	1.0	-20.5	2.5	0.1	-1.6%	0.697
Cc1ccc(NC(=O)C(C)OC(=O)COc2cccc(C(F)(F)F)c2)cc1 (stereo not drawn)	18.7*	0.7	-1.9	2.1	-1.8	10.7%	0.63
COc1cccc(/C=C2\N=C(c3c(-c4ccccc4)noc3C)OC2=O)c1	6.4	-0.6	4.9	-17.2	0.2	?	0.698
CCOC(=O)N1CCN(C(=O)c2ccc3c(=O)n(CCOC)c(=O)[nH]c3c2)CC1	3.5	0.2	3.9	-5.8	0.7	0.4%	0.683
O=C(C1=NN[C@@H]2C(=O)N(c3ccccc3C(F)(F)F)C(=O)[C@H]12)c1cnccn1	-0.8	0.1	-1.5	13.2	0.2	?	0.637
O=C1OCc2cc(NC(=O)C3CCCCC3)ccc21	-1.8	0.3	-1.1	-1.7	-8.5	3.1%	0.66
O=C(Nc1c2c(nn1-c1ccccc1)CS(=O)(=O)C2)c1ccccc1Br	3.9	0.6	-5.4	1.1	0.2	/	0.723
Cc1nc2ncnn2c(N2CCN(c3cccc(C(F)(F)F)c3)CC2)c1C	-3.9	-0.1	-4.2	5.3	2.3	-0.3%	0.7
COc1ccc(C(=O)CCS(=O)(=O)c2ccc(C)cc2)cc1OC	-4.1	0.5	-334.7	-1.1	2.9	/	0.68
O=C(N/N=C/c1ccc(N2CCOCC2)o1)c1cccc(F)c1	5.6	0.3	4.4	/	1.8	17.9%	/
Cc1cccc(N2CCN(C(c3ccc(N(C)C)cc3)c3nnnn3C(C)(C)C)CC2)c1C (stereo not drawn)	-3.2	0.1	1.1	-2.4	-0.1	5.7%	0.76
Cc1ccc(S(=O)(=O)N(C)CC(=O)OCC(=O)NCCc2ccc(S(N)(=O)=O)cc2)cc1	3.9	-0.6	-1.7	5.0	-0.1	-5.0%	0.681
Cc1cc(C)c(S(=O)(=O)N2CCCC(C(=O)N3CCOCC3)C2)c(C)c1 (stereo not drawn)	-3.0	0.2	-3.3	1.5	0.9	-2.2%	0.696
COc1ccc(/C=C/C(=O)NC2CCCCCC2)cc1S(=O)(=O)N1CCOCC1	-0.7	-1.2	3.4	0.8	0.1	/	0.611
CCOC(=O)C1=C(COC(=O)Cc2ccccc2F)NC(=O)NC1C (stereo not drawn)	-4.7	0.1	3.5	1.5	-4.1	0.5%	0.665
COC(=O)c1ccc(C(=O)NC(=S)Nc2nc3c(s2)CC(C)CC3)cc1 (stereo not drawn)	0.1	-0.8	-2.0	1.2	0.6	14.4%	0.674
CCC(CC)COC(=O)C1=C(C)NC(=O)NC1c1cccc([N+](=O)[O-])c1 (stereo not drawn)	-3.0	-0.5	-7.5	5.0	0.5	-4.3%	0.696
COc1ccc(S(=O)(=O)N2CCN(C(C)C(=O)Nc3ccc(C(C)C)cc3)CC2)cc1 (stereo not drawn)	4.8	0.7	4.4	2.5	5.7	-3.2%	0.683
c1cnc(N2CCN(c3ccc4ccccc4n3)CC2)nc1	-4.9	0.4	-5.5	/	-2.4	?	/
O=C(CNS(=O)(=O)c1ccc2c(c1)OCCCO2)N1CCN(Cc2ccccc2)CC1	0.5	-0.7	-3.2	3.4	-3.5	/	0.707
O=C(CCc1ccccc1)NCCc1cccs1	0.8	1.0	5.5	0.9	-1.6	-12.9%	0.685
CC(=O)NS(=O)(=O)c1ccc(NC(=O)COc2ccc(C(=O)c3ccccc3)cc2)cc1	-6.9	0.7	-2.4	2.6	-0.2	?	0.616
CC1(c2ccc([N+](=O)[O-])cc2)NC(=O)NC1=O (stereo not drawn)	0.0	-0.4	13.6	0.0	-1.4	/	0.651
COc1cccc(N2CCN(CC(=O)Nc3ccc(S(=O)(=O)N4CCCCCC4)cc3)CC2)c1	-4.1	-1.0	-6.2	-3.3	0.0	0.7%	0.648
Cc1ccc(Cl)cc1N1CCN(Cc2nnnn2Cc2ccco2)CC1	1.2	0.2	-6.5	/	-4.2	9.0%	/
COC(=O)C1=C(C)NC(=O)/C1=C\N(C)C	-0.4	1.9	-1.7	6.1	-3.2	5.9%	0.696
Cc1ccc(OCC(=O)N/N=C\c2ccc(O)cc2)c([N+](=O)[O-])c1	1.9	0.2	-10.0	/	2.2	2.7%	/
NS(=O)(=O)c1ccc(CCNC(=O)CCNS(=O)(=O)c2ccccc2C(F)(F)F)cc1	/	0.4	-2.0	-0.1	2.8	-1.3%	0.66
O=C(c1ccc2c(=O)n(Cc3ccccc3)c(=S)[nH]c2c1)N1CCOCC1	0.2	0.9	-3.0	6.5	-1.7	/	0.7
COc1ccc(OCCSc2nc3ccccc3c(=O)[nH]2)cc1	2.8	0.0	2.0	-0.9	3.5	-36.5%	0.681
CCOC(=O)CN(C(=O)COc1nc(C)cc(C)c1C#N)c1cccc(Cl)c1	0.5	0.1	-1.9	0.7	7.9	/	0.635
COc1ccc(-c2noc(CSc3nnc(-c4ccncc4)n3-c3ccc(F)cc3)n2)cc1OC	1.1	0.5	6.7	1.8	-1.7	-2.4%&-1.3%	0.68
Cc1cc(SCC(=O)Nc2ccccc2)nc(C)n1	-5.9	-0.3	-9.4	4.2	-2.2	5.3%	0.801
O=C(Nc1cccc(NC(=O)C2CCCO2)c1)C1CCCO1 (stereo not drawn)	2.1	0.8	6.1	-0.8	-1.4	1.1%	0.655
CC(=O)N1CCN(c2ccc(NC(=O)c3ccccc3)cc2)CC1	0.5	-0.1	3.9	4.5	-0.1	-3.0%	0.605
CCOC(=O)C[C@H]1c2ccccc2S(=O)(=O)N1C1CC1	3.7	2.6	3.1	-2.3	-3.5	/	/
O=[N+]([O-])c1ccc(O)c(/C=N/Nc2ncnc3c2cnn3-c2ccccc2)c1	1.5	-6.7	20.6	/	-28.4	/	/
CC(C)CCNc1nc2c(c(=O)n(Cc3cccc(F)c3)c(=O)n2C)n1C	0.7	0.5	-3.3	1.4	-2.2	-1.4%	0.719
Cc1ccc(N/N=C2\CCS(=O)(=O)c3sccc32)cc1	1.8	-0.1	3.6	/	-1.7	0.1%	/
O=C(CN1CCN(Cc2ccccc2)CC1)N/N=C/c1ccccc1F	3.8	1.6	-3.4	/	-0.5	/	/
(continued)
SMILES	LANA-H2A inh	Bfl-1 A1 inh	B2AR ag	UCH37 inh	HNF4A DNA FP	Vif A3G	Ecoli growth
CN1CCN(C(=S)c2cn(Cc3ccccc3)c3ccccc23)CC1	6.5	0.3	-2.0	4.9	-0.7	7.4%	0.7
Cc1ccc(NC(=S)N(Cc2ccco2)C(C)c2cccs2)cc1 (stereo not drawn)	-2.9	1.0	-2.6	-1.1	-1.7	3.2%	0.729
CC(C)[C@H](NS(=O)(=O)c1cccc(Cl)c1)C(=O)OCC(=O)N1CCN(c2ccccc2)CC1	-3.2	0.9	4.1	5.6	3.2	-3.4%	0.721
O=S(=O)(NCC(c1ccco1)N1CCN(c2ccccc2F)CC1)c1ccc2c(c1)OCCO2 (stereo not drawn)	5.7	1.9	-7.8	1.5	1.8	10.2%	0.627
C=CC(COCc1ccccc1)N(Cc1ccccc1)S(=O)(=O)c1ccccc1Br (stereo not drawn)	-1.6	0.3	14.6	1.2	-1.3	-0.6%	0.725
COc1ccc(S(=O)(=O)N2CCCCC2)cc1NC(=O)C1CC(=O)N(c2ccc3c(c2)OCCO3)C1 (stereo not drawn)	2.7	0.3	4.6	-1.7	1.9	2.6%	0.672
COc1cc(-c2cccc([C@H]3[C@@H]4C=CC[C@@H](C)[C@@H]4C(=O)N3Cc3ccccc3)c2)cc(OC)c1OC	/	/	12.0	6.5	-3.0	-8.6%	0.735
Cc1ccc(-c2csc(=Nc3cccnc3)n2CCCn2ccnc2)cc1C	6.6	0.1	3.6	4.8	1.3	4.5%	0.656
